Screening data deposited in PubChem BioAssay by National Center for Advancing Translational Sciences (NCATS).
miR-21 FLuc – raises the signal of a miR-21 reporter; HeLa miR-21 FLuc reporter, luciferase, 48 h; Potency, µM (highest dose often 38.3 µM), for the others: at the top dose reporter change, positive = more light; 340,000 tested, under 10 active; active = well fitted rising curve with a large enough effect; inconclusive = small, poorly fitted or top-dose-only effect; inactive = no such curve, though single readings can be large or run the other way;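 also: % of control where 0% means no effect; miR-21 action dims this reporter so a rising signal means less miR-21 action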
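HeLa cells endogenously expressing miR-21, stably carrying CMV-driven firefly luciferase with a downstream miR-21 binding site, 2000 cells/well. Titrations up to approximately 40 uM, 48 hours; luciferase luminescence read.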
GLA inh pH 4.5 – blocks human alpha-galactosidase A at pH 4.5; AID 1467; activity change, negative = inhibition, % at 105 µM; P06280; purified enzyme, 4-MU-alpha-Gal fluorescence, pH 4.5; 230,000 tested, under 10 active; inconclusive = small, poorly fitted or top-dose-only inhibition, or a rising curve; inactive = flat fitted curve, though single readings scatter; no compound was filed as active;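 also: 0% = full activity with enzyme and -100% = basal without enzyme; dose as in the result columns while the protocol names 77 µM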
Rango complex inh – prevents formation of the Rango-importin beta complex | Q14974 | Rango CFP/YFP FRET sensor + importin beta, 45 min | Potency, µM (top dose mostly 92.2 µM), for the others: at the highest dose inhibition of complex formation | 0.031% of 340,000 active | AID 540263; active = rising FRET ratio curve, often small or poorly fitted; inconclusive = mostly compound fluorescence or quenching in the first reads; inactive = flat curves in all reads;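 also: potency is read from the fitted curve at half-maximal effect; 0% = DMSO wells and 100% = buffer wells lacking importin beta; nearly all actives have a fitted effect of over 15% in size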
Target sequence (Q14974 whole entry, looked up): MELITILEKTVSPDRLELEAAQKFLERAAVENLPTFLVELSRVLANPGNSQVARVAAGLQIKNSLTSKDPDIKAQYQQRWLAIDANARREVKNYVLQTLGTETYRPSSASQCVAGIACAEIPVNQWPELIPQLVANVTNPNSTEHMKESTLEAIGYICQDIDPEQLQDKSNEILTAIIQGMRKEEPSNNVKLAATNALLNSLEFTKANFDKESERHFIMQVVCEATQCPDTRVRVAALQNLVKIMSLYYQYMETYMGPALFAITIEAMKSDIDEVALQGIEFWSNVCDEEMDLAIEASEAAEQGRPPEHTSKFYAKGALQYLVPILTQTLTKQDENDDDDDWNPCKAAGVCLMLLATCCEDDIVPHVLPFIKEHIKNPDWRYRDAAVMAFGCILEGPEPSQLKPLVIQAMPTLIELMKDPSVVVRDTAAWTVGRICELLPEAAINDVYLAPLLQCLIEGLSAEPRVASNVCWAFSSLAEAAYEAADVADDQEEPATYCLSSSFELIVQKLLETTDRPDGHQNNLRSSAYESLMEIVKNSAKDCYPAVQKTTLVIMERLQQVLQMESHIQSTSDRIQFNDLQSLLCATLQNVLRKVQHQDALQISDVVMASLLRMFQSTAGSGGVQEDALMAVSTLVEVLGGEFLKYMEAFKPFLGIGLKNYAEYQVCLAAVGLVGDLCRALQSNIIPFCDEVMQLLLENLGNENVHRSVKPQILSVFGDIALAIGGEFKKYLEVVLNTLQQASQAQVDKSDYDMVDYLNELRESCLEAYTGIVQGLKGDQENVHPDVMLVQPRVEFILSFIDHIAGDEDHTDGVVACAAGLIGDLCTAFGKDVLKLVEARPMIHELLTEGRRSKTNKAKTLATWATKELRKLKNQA
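FRET biosensor (snurportin 1 IBB flanked by EYFP and cerulean), 50 nM, with compound 5 min, then 0.125 microM importin beta in PBS, 1 mM DTT, 0.02% Tween-20, 0.1% BSA. CFP/YFP ratio read after 45 min at room temperature; pre-read flags interference.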
Rango release inh – prevents RanGTP from dissociating the Rango-importin beta complex; O95149+P62826; Biochemical FRET Rango-importin beta, RanGTP-induced dissociation; Potency, µM (titrated, usually from 46.1 µM), for the others: at the highest dose activity change, negative = inhibition; 0.071% of 340,000 active; AID 540253; active means falling FRET ratio curve, often poorly fitted, with flat reads before Ran was added; inconclusive means other falling curves, or compound fluorescence or quenching; inactive means flat or rising ratio curve;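 also: potency is read from the fitted curve at half-maximal effect; % of control where 0% means no effect; nearly all actives have a fitted effect of over 45% in size; -100% = wells without RanGTP and RCC1; the record marks most hits as doubtful in a second field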
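Rango (0.1 uM)–importin beta (0.25 uM) complex; RanGTP-RCC1 trigger; 45 min RT; CFP/YFP FRET read.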
An asterisk follows results filed as active; ? = inconclusive; . = not tested or not shown.

SMILES | miR-21 FLuc | GLA inh pH 4.5 | Rango complex inh | Rango release inh
COc1ccc(-c2ccc(SCC(=O)NCc3ccco3)nn2)cc1OC | -23.1% | 2.0 | -5.7% | -10.9%
CN1CCN(CCc2nc3cc(NC(=O)COc4ccc([N+](=O)[O-])cc4)ccc3n2C)CC1 | 0.2% | . | -2.0% | 0.6%
COc1ccc(/C=N/NC(=O)C[n+]2ccccc2)c(OC)c1OC | -4.7% | -7.2 | 4.4% | 1.0%
NS(=O)(=O)c1ccc(CCNC(=O)C2CCN(S(=O)(=O)c3cnc[nH]3)CC2)cc1 | -2.8% | -3.4 | -3.2% | 1.7%
CC(=O)Nc1cccc(NC(=O)c2oc3ccccc3c2C)c1 | -41.9% | 3.3 | . | .
Cc1nc2cc(NC(=O)c3ccc(S(=O)(=O)N(C)c4ccccc4)cc3)ccc2o1 | ? | . | 3.7% | -10.9%
COc1ccc(C(=O)Nc2ccccc2-c2nnn(CC(=O)NCc3ccco3)n2)cc1 | -4.7% | -0.1 | -5.3% | 0.8%
O=C1C(c2ccccc2)C(c2ccccc2)NC(c2ccccc2)C1c1ccccc1 (stereo not given) | -6.5% | -11.0 | 0.0% | 7.0%
CC(=O)Nc1cc(C(=O)N2CCc3ccccc3C2)ccc1Sc1ccc(C)cc1 | -0.9% | 0.3 | 1.6% | 18.8%
CCOC(=O)C/C(C)=N/NC(=O)CN(c1ccc(Br)cc1)S(=O)(=O)c1ccccc1 | 4.5% | -2.5 | -2.7% | -9.9%
CCNC(=O)NC(=O)C(C)OC(=O)C1CCN(S(=O)(=O)c2ccc(C)c(C)c2)CC1 (stereo not given) | -1.0% | 6.2 | -1.3% | 1.8%
C=CCOc1ccc(/C=C/C(=O)OCC(=O)Nc2c(C)n(C)n(-c3ccccc3)c2=O)cc1 | . | . | 0.2% | 13.7%
Cc1cccc(COc2ccc(S(=O)(=O)N3CCOCC3)cc2[N+](=O)[O-])c1 | . | . | 0.3% | -7.9%
S=C(N/N=C/c1cccs1)NC1CC2CCC1C2 (stereo not given) | -24.5% | -7.0 | -0.1% | -2.1%
Cc1ccc(S(=O)(=O)N2CCCC2C(=O)Nc2nccs2)cc1 (stereo not given) | 3.2% | -3.5 | -5.5% | 43.9%
O=C(c1cccc(C(=O)N2CCc3ccccc32)n1)N1CCc2ccccc21 | -15.6% | 7.3 | 2.1% | -7.1%
O=C(CSCC(=O)Nc1ccccc1)N/N=C/c1c(O)ccc2ccccc12 | 11.5% | -0.1 | ? | ?
O=C(CCCn1c(SCc2cccc([N+](=O)[O-])c2)nc2ccccc2c1=O)NCC1CCCO1 (stereo not given) | 15.2% | 0.6 | -4.4% | 7.2%
CCN(CC(=O)NCc1ccc(Cl)cc1)C(=O)/C=C/c1ccccc1 | -1.7% | . | -0.2% | -8.0%
O=C(CCCc1c[nH]c2ccccc12)N1CCN(c2ccc(N3CCOCC3)nn2)CC1 | -9.7% | 2.0 | -1.1% | -2.0%
O=C(COC(=O)COc1ccc(Br)cc1)NCc1ccc2c(c1)OCO2 | . | . | -0.1% | -14.0%
CCOC(=O)c1c(=O)n(O)c2ccc(C)cc2[n+]1[O-] | 3.1% | 1.6 | 2.2% | -4.8%
O=C(O)COc1ccc2nsnc2c1Cl | -2.8% | -6.0 | ? | ?
Cc1csc(NC(=O)CCC(=O)N(CC(=O)NC2CCCC2)Cc2ccco2)n1 | -1.1% | -3.2 | -1.1% | 30.5%
CCOc1ccc(S(=O)(=O)NC(=O)c2ccccc2)cc1 | -0.9% | . | 0.3% | -0.4%

Carrying on:
SMILES | miR-21 FLuc | GLA inh pH 4.5 | Rango complex inh | Rango release inh
Clc1ccc(C2=NN=C3COc4ccccc4N3C2)cc1 | -3.3% | 3.3 | ? | -23.4%
CCn1cc(C(=O)Nc2cc(C)ccc2C)c(=O)c2ccc(C)nc21 | -1.2% | 8.8 | . | .
COc1cccc(CNC(=O)CCCC(=O)NC(C)CCc2ccccc2)c1 (stereo not given) | -0.2% | . | -0.8% | ?
CCOC(=O)C1=C(C)NC2=C(C(=O)c3ccccc32)C1c1cccc2ccccc12 (stereo not given) | -2.3% | 8.6 | 0.7% | 6.1%
Cc1noc(NS(=O)(=O)c2ccc(NC(=O)CCN3C(=O)c4ccccc4C3=O)cc2)c1C | -1.9% | 5.0 | 1.2% | -0.5%
COc1ccccc1N1CCN(C(=O)C(NS(=O)(=O)c2cccs2)c2ccccc2)CC1 (stereo not given) | 15.8% | 1.0 | -0.1% | ?
O=C(O)CCCNC(=O)c1cncc(Br)c1 | -1.4% | 0.1 | -0.3% | 5.7%
O=C(CCNC(=O)N1CC(=O)Nc2ccccc21)Nc1ccc(F)c(Cl)c1 | -8.1% | . | -1.1% | 9.5%
COCCCNC(=O)c1c(F)c(F)c(F)c(F)c1F | -5.1% | 13.7 | 2.0% | -5.8%
CCOC(=O)c1nn(-c2ccccc2C)c(=O)c2c(N)scc12 | 0.2% | -17.1 | ? | 8.8%
CCN(CC)C(=O)c1ccc(NS(=O)(=O)c2ccc3[nH]c(=O)[nH]c3c2)cc1 | 9.8% | . | 0.2% | -8.2%
COc1ccc(CC(=O)Nc2ccc(OC)c(NC(=O)c3ccco3)c2)cc1 | -5.5% | -15.4 | -1.1% | -1.2%
CCN(CC)c1ccc(C(=O)OCC(=O)Nc2cccc(S(=O)(=O)NC3=NCCCCC3)c2)cc1 | -2.4% | -2.2 | -2.4% | 7.3%
CC1CC(=Cc2ccc([N+](=O)[O-])cc2)C(=O)O1 (stereo not given) | . | . | 0.8% | 7.6%
O=C(CN1CCN(Cc2ccccc2)CC1)N/N=C/c1ccc(Br)s1 | ? | -2.6 | 2.1% | 0.0%
CC1=NN(c2ccccc2)C(=O)/C1=C\c1cc(C)n(-c2cccnc2)c1C | -0.7% | 0.4 | 2.0% | -9.6%
c1ccc(CSc2nnc(-c3cccs3)o2)cc1 | -53.6% | 0.3 | 2.5% | 14.9%
O=C(Nc1ccccc1N1CCN(c2ccc(F)cc2)CC1)C1CCCCC1 | -0.6% | -1.8 | 0.3% | 1.5%
CC(=O)N(CN1C(=O)C2CC=CCC2C1=O)c1cccc(Cl)c1 (stereo not given) | -3.9% | -1.3 | ? | ?
CCOC(=O)CCP(=O)(O)C(O)(c1ccccc1)c1ccccc1 | -2.6% | -8.4 | -1.4% | 6.6%
COC(=O)c1cn(NC(=O)C2CCCCC2)c(=O)c2ccccc12 | -1.3% | -5.7 | 1.4% | -1.5%
N#Cc1nc(COc2ccccc2Cl)oc1N1CCCCCC1 | -3.9% | -5.0 | -3.8% | 3.3%
CC1NC(=O)NC1CCCCCC(=O)NCCc1ccccc1 (stereo not given) | -1.4% | 4.4 | 1.7% | -0.5%
CCCOc1ccc(N2C(=O)C/C(=C\c3ccccc3)C2=O)cc1 | 2.0% | 1.7 | -3.6% | 1.0%
CCC(C)(C)NC(=O)C(c1cccn1C)N(C(=O)Cn1nnc2ccccc21)c1ccc(NC(C)=O)cc1 (stereo not given) | 3.1% | 4.0 | -0.4% | -3.8%

Next part:
SMILES | miR-21 FLuc | GLA inh pH 4.5 | Rango complex inh | Rango release inh
COC(=O)CNC(=O)COC(=O)c1ccc(Cl)nc1 | 1.8% | -9.6 | -1.3% | -8.7%
O=C(CN1CCN(CC(=O)Nc2ccc(F)cc2)CC1)NCC1(N2CCOCC2)CCCCC1 | . | . | 2.9% | -2.9%
CCCC(=O)NC(NC(=S)Nc1ccc(S(N)(=O)=O)cc1)C(Cl)(Cl)Cl (stereo not given) | -1.1% | -6.4 | -5.6% | 0.2%
CCOC(=O)N1CCN(C(=O)c2ccc(OC)c(S(=O)(=O)N3CCOCC3)c2)CC1 | -2.5% | 2.3 | -3.5% | -8.1%
C#CCOCCOCCOCCNc1nc(N2CCN(C(=O)CCCCCCCCCCNC(=O)[C@@H]([C@H](C)O)n3cc(C)nn3)CC2)nc(N2CCN(C(=O)CCCCCCCCCCNC(=O)[C@@H]([C@H](C)O)n3cc(C)nn3)CC2)n1 | . | . | -0.3% | 0.1%
CCN(CC)S(=O)(=O)c1cc(NC(=O)Cn2cnc3ccccc3c2=O)ccc1C | 2.7% | -15.6 | 0.0% | 14.6%
CCc1nnc(NC(=O)c2cc(S(=O)(=O)N3CCCCC3)ccc2N2CCOCC2)s1 | -4.3% | 7.6 | -4.6% | 11.0%
CCN(CC)CCOC(=O)C1c2ccccc2Oc2ccccc21 | 0.3% | -4.9 | -1.7% | 16.3%
Cc1nn(C)cc1/C=N\NC(=O)c1csc2c1CCCC2 | -17.6% | . | -0.9% | 40.2%
Cc1ccc(OCC(=O)NCCS(=O)(=O)N2CCN(c3ccccc3)CC2)cc1 | . | . | 0.4% | -6.7%
COc1ccccc1-n1nnnc1SC(C)C(=O)NC1CCCC1 (stereo not given) | . | . | 4.6% | 15.2%
COc1ccc(NC(=O)C2CC2)cc1S(=O)(=O)N1CCOCC1 | . | . | 0.4% | 0.5%
CCCOc1ccc(N2C(=O)CC(N3CCN(c4ccc([N+](=O)[O-])cc4)CC3)C2=O)cc1 (stereo not given) | 9.9% | . | ? | -6.7%
CCOC(=O)c1c(C)c(C(=O)NC2CCCCCC2)c(C)n1C | -10.5% | 4.6 | -4.3% | 0.5%
COc1cc(/C=N/NC2=NS(=O)(=O)c3ccccc32)cc(OC)c1OC | 1.9% | . | ? | 2.2%
CC(C)(NO)/C(=N/O)c1cccs1 | -9.1% | -2.8 | 0.6% | -15.6%
CCC1(c2ccccc2)NC(=O)N(CC(=O)Nc2nnc(C3CC3)s2)C1=O (stereo not given) | -0.3% | . | -1.9% | 1.4%
Cn1c(-c2ccc(Cl)nc2)nc2cc(Cl)ccc21 | -16.5% | . | 0.2% | -2.3%
CC(=C/c1ccccc1)/C=N/NC(=O)c1cc(C)oc1C | -37.3% | -2.4 | -1.6% | -8.4%
COc1ccc(CN2CCN(CC(=O)Nc3ccccc3C(=O)NC3CC3)CC2)cc1F | . | . | 9.4% | 12.9%
Cc1ccc(C(=O)N/C(=C/c2ccccc2F)C(=O)NCCCn2ccnc2)cc1 | 1.4% | . | 2.0% | 21.7%
Cc1cccc(N(CC(=O)NC2CCCC2)C(=O)c2nsc(Cl)c2Cl)c1C | 10.7% | 1.5 | 0.2% | -15.6%
CCOc1ccc(NC(=O)CC2SC(=O)N(c3ccccc3)C2=O)cc1 (stereo not given) | -30.8% | 1.1 | -2.3% | -15.7%
COC(=O)C1Cc2ccccc2CN1S(=O)(=O)c1ccc(C)cc1 (stereo not given) | -7.0% | . | 0.0% | 9.1%
O=C(c1ccc2ccccc2c1)N1CCN(c2ccccn2)CC1 | -8.6% | . | 2.8% | -9.0%

Quoted from the listing.
Rango complex inh, CCc1nnc(NC(=O)c2cc(S(=O)(=O)N3CCCCC3)ccc2N2CCOCC2)s1 : -4.6%
miR-21 FLuc, COC(=O)CNC(=O)COC(=O)c1ccc(Cl)nc1 : 1.8%

(next part)
SMILES | miR-21 FLuc | GLA inh pH 4.5 | Rango complex inh | Rango release inh
S=c1[nH]c2cc(Cl)ccc2s1 | -10.6% | -0.5 | -5.6% | 9.4%
O=C(COc1ccc2ccccc2c1)N1c2ccccc2Sc2ccccc21 | -0.9% | -7.9 | -3.0% | -8.0%
COc1cccc(NC(=O)COC(=O)COc2cccc3c2OC(C)(C)C3)c1 | 2.1% | . | -3.2% | 13.4%
COc1ccc(C(=O)NC(=S)NNC(=O)c2ccc3ccccc3n2)cc1 | 0.2% | -9.6 | -0.3% | -12.2%
COC(=O)c1ccccc1NC(=O)CCn1c(=O)oc2ccccc21 | -14.1% | . | 0.3% | -12.0%
CCc1cccc(NC(=O)c2ccc(Cn3nc(C)cc3C)o2)c1 | -38.1% | -1.5 | -0.5% | 5.3%
Cc1nc(C)c(-c2csc(NCc3ccco3)n2)s1 | -47.6% | 1.3 | 0.8% | 4.8%
COc1ccc(-c2nn(-c3ccccc3)cc2C(=O)NCCCn2ccnc2)cc1 | -5.0% | 1.6 | 0.6% | 0.9%

Entries above that have a COOH group (2):
SMILES | miR-21 FLuc | GLA inh pH 4.5 | Rango complex inh | Rango release inh
O=C(O)COc1ccc2nsnc2c1Cl | -2.8% | -6.0 | ? | ?
O=C(O)CCCNC(=O)c1cncc(Br)c1 | -1.4% | 0.1 | -0.3% | 5.7%

This is a subset (hit frequency here may not be typical).
